High-throughput results: PubChem BioAssay, National Center for Advancing Translational Sciences (NCATS)
TRPML1 blocker – blocks the human TRPML1 channel; Q9GZU1; TRPML1-inducible cells, Ca2+ dye fluorescence, FDSS; hits give low values; inhibition of EC80 agonist-evoked calcium signal; activity change, negative = inhibition, % (no concentration beside the values); actives 0.02% (n = 390,000); AID 624415; in the data active means activity change below about -50%; inconclusive means about -30% to -50%; inactive means above about -30%;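 further: stimulus is agonist 54-4 at its EC80 concentration; on the % scale 0 is the no-effect control and ±100 the full control effect; compound concentration not given in the record; the text of the record puts the active cut at -80%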
Target sequence (Q9GZU1 whole entry, looked up): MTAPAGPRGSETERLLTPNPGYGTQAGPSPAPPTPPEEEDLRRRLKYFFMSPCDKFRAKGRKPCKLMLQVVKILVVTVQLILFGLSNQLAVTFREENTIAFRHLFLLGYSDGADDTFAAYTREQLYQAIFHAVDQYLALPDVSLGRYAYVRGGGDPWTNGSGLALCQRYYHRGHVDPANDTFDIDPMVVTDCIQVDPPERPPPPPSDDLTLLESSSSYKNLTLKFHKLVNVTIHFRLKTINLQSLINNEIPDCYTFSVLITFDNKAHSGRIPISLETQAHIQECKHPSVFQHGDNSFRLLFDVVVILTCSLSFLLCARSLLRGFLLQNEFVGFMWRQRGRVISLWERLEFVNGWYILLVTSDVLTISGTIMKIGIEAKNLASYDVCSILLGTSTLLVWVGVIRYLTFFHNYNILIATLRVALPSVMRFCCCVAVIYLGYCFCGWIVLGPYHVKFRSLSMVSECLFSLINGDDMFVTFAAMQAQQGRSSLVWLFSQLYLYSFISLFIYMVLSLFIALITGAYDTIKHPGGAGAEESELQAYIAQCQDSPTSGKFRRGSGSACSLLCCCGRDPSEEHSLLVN
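Tet-induced TRPML1-DL cells loaded with Ca8 no-wash calcium dye were read kinetically on FDSS. Compound addition was followed by EC80 agonist 54-4 (4 uM final); inhibition was read over 110 s.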
gsp agonist – activates gsp, the McCune-Albright syndrome mutation; Potency, µM (top dose mostly 76.9 µM), inactives show at the highest dose activation (cAMP increase), actives largely listed as activators; gsp mutant cells, cAMP HTRF, 30 min; control for the full effect not named in the record; AID 624287; actives 0.13% (n = 340,000); active = well fitted activation curve with a large enough effect; inconclusive = small, poorly fitted or top-dose-only effect, or another doubt; inactive = no such curve, though single readings can be large or run the other way; cell line not stated here;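 further: phosphodiesterase inhibitor Ro 20-1724 added with compounds to block cAMP breakdown; potency means the concentration at half of the fitted maximal effect; nearly all actives have a fitted effect of over 60% in size; about a fifth of the inactives were tested at one dose only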
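Cells in DMEM/10% FBS with G418 were pretreated with compounds in DMSO plus […] (300 uM stock) for 30 min at 37C. cAMP was measured by HTRF (cAMP-d2 plus anti-cAMP antibody-K) after 30 min at room temperature.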
Menin MLL FP FL – displaces fluorescein MLL peptide from human menin; Fluorescence polarization, fluorescein-MLL peptide displacement from menin; FP activity change, % at 61.4 µM; 290,000 tested, under 10 active; AID 1766; inconclusive = falling polarisation curve, or a change in total fluorescence; inactive = total fluorescence flat and polarisation flat or rising; no compound was filed as active; the % refers to the polarisation; negative = inhibition;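 further: % of control where 0% means no effect; inhibitors lower the polarisation; unlabelled MLL peptide was the positive control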
gsp antagonist – gsp mutant antagonism; AID 624288; actives 0.4% (n = 340,000); Potency, µM (series often up to 76.9 µM), for the others: at the top dose activity change, negative = inhibition, most hits filed as inhibitors; gsp-mutant cells, cAMP HTRF, 30 min; control for the full effect not named in the record; active = falling curve of any shape with a large fitted effect; inconclusive = falling curve, mostly with a smaller effect; inactive = flat or rising curve; cell line not stated here;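 further: intracellular cAMP measured with PDE inhibitor Ro 20-1724 present during compound exposure; potency means the concentration at half of the fitted maximal effect; on the % scale 0 is the no-effect control and ±100 the full control effect; nearly all actives have a fitted effect of over 65% in size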
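G418-selected cells were plated in DMEM/10% FBS for 16-24 h at 37C, then treated with compounds plus the PDE inhibitor […] (300 uM solution added) for 30 min at 37C. Intracellular cAMP was measured by HTRF after 30 min lysis at room temperature.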
ClpP mod – qHTS Assay for Activators of ClpP; purified B. subtilis ClpP, FRET peptide cleavage, 20 min; Potency, µM (top dose mostly 57.5 µM), without a hit: top-dose activity change, negative = active; actives 1.9% (n = 340,000); AID 651965, 2013; active = well fitted falling curve with a large enough effect; inconclusive = small, poorly fitted or top-dose-only effect; inactive = no such curve, though single readings can be large or run the other way; further: potency means the concentration at half of the fitted maximal effect; the source files actives as falling curves though it sought activators and does not explain the sign; nearly all actives have a fitted effect of over 65% in size; many hits overshoot -100%
Target sequence (P80244 whole entry, looked up): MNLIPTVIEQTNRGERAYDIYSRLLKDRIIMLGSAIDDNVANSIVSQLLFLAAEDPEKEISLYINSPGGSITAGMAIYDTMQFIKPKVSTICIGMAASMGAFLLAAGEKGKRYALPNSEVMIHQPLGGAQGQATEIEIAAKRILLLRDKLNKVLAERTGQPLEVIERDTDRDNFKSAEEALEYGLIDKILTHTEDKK
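ClpP 10 microg/mL final, pH 8 Tris/KCl buffer with BSA, glycerol, Tween-20; compound pinned in; FRET-FV substrate; RT 20 min; Ex320/Em430; ΔFRET vs ADEP 5.8 microM, DMSO, no enzyme.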
Sfp PPTase inh – blocks B. subtilis Sfp PPTase activity; Potency, µM, for the others: max response, negative = inhibition, usual class: inhibitors; Biochemical Sfp PPTase activity, qHTS; AID 1490; actives 3.5% (n = 310,000); active means well fitted inhibition curve with a large enough effect; inconclusive means small, poorly fitted or top-dose-only effect, or another doubt; inactive means no such curve, though single readings can be large or run the other way;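 further: the enzyme is Sfp with the accession as filed and its product quenches rhodamine fluorescence; potency means the concentration at half of the fitted maximal effect; 0% = enzyme reaction without inhibitor and -100% = no enzyme wells; top concentration of the series not given in the record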
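Fluorescence-quenching assay: 15 nM Sfp-PPTase preincubated 15 min at room temperature with compound, then 5 uM rhodamine-CoA and 12.5 uM BHQ-2-labelled YbbR peptide added. Fluorescence (ex 525/em 598 nm) read at start and after 30 min; difference gives rate.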
TRPV1 PAM – human TRPV1 potentiation. Q8NER1. AID 540277. actives 0.02% (n = 320,000). TRPV1-expressing cells, Fluo-8 calcium influx, capsaicin EC20 potentiation; host cell line not named in the record; control for the full effect not named in the record. potentiation, % at 8.33 µM; active means potentiation above 80%; inconclusive means 30% to 80%; inactive means below 30%; further: 0% is about no effect
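Cells expressing TRPV1 were dye-loaded with Fluo-8 and read kinetically: 10 s baseline, 3 min after compound (agonist portion), then 2 min after EC20 capsaicin (allosteric enhancer portion). Calcium-bound dye fluorescence at 480/520 nm.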
* hit, by the source's call; [ ] = dose if it differs, or a comment.

Results for COc1cccc(OC)c1NC(=O)c1nc2c(nnn2Cc2ccccc2Cl)c(=O)[nH]1 ?
TRPML1 blocker: -4; gsp agonist: 1%[15.4 µM]; Menin MLL FP FL: 0.3; gsp antagonist: 2%; ClpP mod: 0.9%; Sfp PPTase inh: 4%; TRPV1 PAM: 18

How did N#Cc1ccc(Cn2c(=O)c(C#N)c3n(c2=O)CCC3)cc1 do in these assays?
TRPML1 blocker: 36; gsp agonist: 0%; Menin MLL FP FL: 1.1; gsp antagonist: 13%; ClpP mod: 0.0%; Sfp PPTase inh: 16%; TRPV1 PAM: -10

Results for COc1ccc(OCC(=O)N2CCN(C(=O)c3cccs3)CC2)cc1 ?
TRPML1 blocker: -9; gsp agonist: -3%; Menin MLL FP FL: 0.9; gsp antagonist: -12%; ClpP mod: 0.7%; Sfp PPTase inh: -18%; TRPV1 PAM: 12

What do the screens show for `COC(=O)C1CCCCN1C(=O)c1ccc2oc(Cc3ccccc3)nc2c1` (stereo not drawn)?
TRPML1 blocker: 15; gsp agonist: 10%; gsp antagonist: -1%; ClpP mod: 28µM*; Sfp PPTase inh: 10%; TRPV1 PAM: 6

Results for C[C@H]1C=C(C(=O)NCc2ccccc2)O[C@@H](OCc2ccc(CO)cc2)C1 ?
TRPML1 blocker: 15; Menin MLL FP FL: 1.7; gsp antagonist: 1%; ClpP mod: -1.9%; Sfp PPTase inh: 15%; TRPV1 PAM: 5

How did COc1cc(CN2CCN(c3ccc(C)cc3)CC2)cc([N+](=O)[O-])c1O do in these assays?
TRPML1 blocker: -8; gsp agonist: inconclusive; Menin MLL FP FL: 0.7; gsp antagonist: -4%; ClpP mod: 0.4%; Sfp PPTase inh: 6%; TRPV1 PAM: 5

What do the screens show for `CC1CCN(C(=O)c2ccccc2NC(=O)c2cccc(S(=O)(=O)N3CCOCC3)c2)CC1`?
TRPML1 blocker: 6; gsp agonist: 17%; Menin MLL FP FL: 1.1; gsp antagonist: 3%; ClpP mod: -0.7%; Sfp PPTase inh: 4%; TRPV1 PAM: 9

How did Cc1ccc(C)c(S(=O)(=O)N2CCN(CC(=O)Nc3sccc3C#N)CC2)c1 do in these assays?
TRPML1 blocker: 30; gsp agonist: -1%; Menin MLL FP FL: 5.6; gsp antagonist: -20%; ClpP mod: 0.6%; Sfp PPTase inh: 0%; TRPV1 PAM: -30

What do the screens show for `C[C@@H]1CN([C@H](C)CO)C(=O)CCCn2nncc2CO[C@@H]1CN(C)S(=O)(=O)c1ccccc1`?
TRPML1 blocker: 19; gsp agonist: -32%[inhibitor]; ClpP mod: 1.1%

Results for COc1ccc2oc(C(=O)OCC(=O)N(C)C3CCCCC3)c(C)c2c1 ?
TRPML1 blocker: 15; gsp agonist: -22%; gsp antagonist: -19%; ClpP mod: 4.4%; TRPV1 PAM: 0

Results for Cc1oc(-c2cccc(Cl)c2)nc1CN1CCC(C(=O)NC2CC2)CC1 ?
TRPML1 blocker: 12; gsp agonist: 18%; Menin MLL FP FL: 0.1; gsp antagonist: 26%; ClpP mod: -0.6%; Sfp PPTase inh: 14%; TRPV1 PAM: 1

How did CCN1C(=O)C2(C(C#N)=C(N)Oc3c2c(C)nn3-c2ccccc2)c2ccccc21 (stereo not drawn) do in these assays?
TRPML1 blocker: -8; gsp agonist: 2%; Menin MLL FP FL: 1.2; gsp antagonist: -18%; ClpP mod: -0.2%; Sfp PPTase inh: 0%; TRPV1 PAM: 6

Results for COc1cccc([C@@H]2CC=C(C(=O)O)[C@H](c3ccc(F)cc3)N2S(=O)(=O)c2ccc(C)cc2)c1 ?
TRPML1 blocker: -16; gsp agonist: -1%; gsp antagonist: -9%; ClpP mod: 0.3%; TRPV1 PAM: 1

What do the screens show for `CS(=O)(=O)NCc1nnc(SCc2ccc(C(F)(F)F)cc2)o1`?
TRPML1 blocker: -12; gsp agonist: 4%[15.4 µM]; Menin MLL FP FL: 1.6; gsp antagonist: 13%; Sfp PPTase inh: 4%; TRPV1 PAM: -20

Results for N=C1C(c2nc3ccccc3s2)=C(O)CN1NC(=O)c1ccco1 ?
TRPML1 blocker: -10; gsp agonist: -8%; Menin MLL FP FL: 4.4; gsp antagonist: 15%; ClpP mod: -3.1%; Sfp PPTase inh: 5%

What do the screens show for `CN1OC[C@@H]2CN(C(=O)C(C)(C)C)[C@H](c3cccc(Oc4ccccc4)c3)C[C@@H]21`?
TRPML1 blocker: 4; gsp agonist: 22%; ClpP mod: 2.9%

Results for CC(=O)Oc1ccc(/C=C2/Oc3ccccc3C2=O)cc1 ?
TRPML1 blocker: 15; gsp agonist: 20%[15.4 µM]; Menin MLL FP FL: inconclusive; gsp antagonist: 13%; ClpP mod: 2.0%; Sfp PPTase inh: -13%; TRPV1 PAM: -19

Results for Cc1ccccc1OCC(O)CN1CCN(CC(O)COc2ccccc2C)CC1 (stereo not drawn) ?
TRPML1 blocker: 7; gsp agonist: 20%; Menin MLL FP FL: 1.3; gsp antagonist: 16%; ClpP mod: 1.3%; Sfp PPTase inh: -5%; TRPV1 PAM: 3

Results for CC(NC(=O)CCc1nnc(Cc2cccc(C(F)(F)F)c2)o1)C1CC1 (stereo not drawn) ?
TRPML1 blocker: 5; gsp agonist: -35%[inhibitor]; Menin MLL FP FL: 1.4; gsp antagonist: 4%; Sfp PPTase inh: 18%; TRPV1 PAM: -8

How did C#CCN(C[C@@H]1[C@@H](OC(=O)NCc2ccc(OC)c(OC)c2)[C@@H](OC(=O)NCc2ccc(OC)c(OC)c2)CN(C(=O)OC(C)C)N1C(=O)OC(C)C)S(=O)(=O)c1ccc(C)cc1 do in these assays?
TRPML1 blocker: -12; gsp agonist: -63%; ClpP mod: -1.3%

What do the screens show for `COC(=O)C(NC(C)=O)(Nc1nc(C)cs1)C(F)(F)F` (stereo not drawn)?
TRPML1 blocker: 1; gsp agonist: -11%; Menin MLL FP FL: 2.9; gsp antagonist: 2%; ClpP mod: 0.7%; Sfp PPTase inh: -5%; TRPV1 PAM: 5

Results for COc1ccccc1/C=C/C(=O)Nc1ccc(S(=O)(=O)Nc2cc(C)nc(C)n2)cc1 ?
TRPML1 blocker: 23; gsp agonist: -10%[15.4 µM]; Menin MLL FP FL: -7.8; gsp antagonist: -15%; Sfp PPTase inh: -4%; TRPV1 PAM: -7

What do the screens show for `CCOc1cc(/C=N/NC(=O)c2cc(C3CC3)[nH]n2)ccc1O`?
TRPML1 blocker: -14; gsp agonist: 10%[15.4 µM]; Menin MLL FP FL: -2.2; gsp antagonist: -5%; Sfp PPTase inh: 14%; TRPV1 PAM: -7

What do the screens show for `COc1cc([N+](=O)[O-])ccc1NC(=S)NNC(=O)c1ccc2c(c1)OCO2`?
TRPML1 blocker: -5; gsp agonist: 0%; gsp antagonist: inconclusive; ClpP mod: 0.7%; Sfp PPTase inh: -15%; TRPV1 PAM: -18

Results for O=C(CSc1nnc(NC(=O)c2c(F)cccc2F)s1)NCc1ccccc1 ?
TRPML1 blocker: 3; gsp agonist: 9%; Menin MLL FP FL: -1.5; gsp antagonist: -11%; Sfp PPTase inh: 12%; TRPV1 PAM: 5

Results for Nc1ccc2nc(-c3ccccc3)cnc2c1 ?
TRPML1 blocker: -5; gsp agonist: 21%[15.4 µM]; gsp antagonist: 8%; ClpP mod: -0.8%

How did CCn1ccc(C(=O)NC2C(=O)N3C(C(=O)O)=C(C)CSC23)n1 (stereo not drawn) do in these assays?
TRPML1 blocker: 27; gsp agonist: 0%; Menin MLL FP FL: 1.1; gsp antagonist: -2%; ClpP mod: -1.4%; Sfp PPTase inh: 32µM*; TRPV1 PAM: 4

Results for N#Cc1c(C(F)(F)F)cc(=O)[nH]c1SCC(=O)O ?
TRPML1 blocker: 14; gsp agonist: -16%; Menin MLL FP FL: -0.9; gsp antagonist: 3%; ClpP mod: -14%; Sfp PPTase inh: 15%; TRPV1 PAM: 6

What do the screens show for `O=C(Nc1cccnc1)c1ccc([N+](=O)[O-])s1`?
TRPML1 blocker: 0; gsp agonist: 2%; gsp antagonist: -6%; ClpP mod: -1.6%; TRPV1 PAM: -15

How did CSc1nc2c(c(=O)[nH]1)CCCC2 do in these assays?
TRPML1 blocker: 12; gsp agonist: -13%; Menin MLL FP FL: 3.2; gsp antagonist: 1%; ClpP mod: -0.2%; Sfp PPTase inh: 4%; TRPV1 PAM: -3

What do the screens show for `C=CCSC1=N/C(=C\c2cccnc2)C(=O)N1c1ccc(OC)cc1`?
TRPML1 blocker: 39; gsp agonist: -30%; Menin MLL FP FL: 2.4; gsp antagonist: -4%; ClpP mod: 0.7%; Sfp PPTase inh: -15%; TRPV1 PAM: 0

What do the screens show for `CCCCSc1nc2c(cnn2-c2ccc(F)cc2)c(=O)[nH]1`?
TRPML1 blocker: -14; gsp agonist: -9%; Menin MLL FP FL: 0.9; gsp antagonist: 8%; ClpP mod: -0.4%; Sfp PPTase inh: 34%[activator]; TRPV1 PAM: 5

What do the screens show for `C=CCNC(=O)C1CCN(c2cnccn2)CC1`?
TRPML1 blocker: 9; gsp agonist: 0%; Menin MLL FP FL: -1.6; gsp antagonist: 17%; ClpP mod: -1.9%; Sfp PPTase inh: -8%; TRPV1 PAM: -13

Results for O=C1NC(=O)C2C1C(c1cccs1)NN2Cc1ccccc1 (stereo not drawn) ?
TRPML1 blocker: -5; gsp agonist: inconclusive; Menin MLL FP FL: 1.0; gsp antagonist: -9%; Sfp PPTase inh: -14%; TRPV1 PAM: -11
